Screens from PubChem BioAssay.
BJeLR viability = MLPCN primary cell-based screen for lethality selective to Ras in HRASV12 cells. BJeLR (HRASV12) viability, CellTiter-Glo ATP luminescence, 48 h; reference of the scale not given here. inhibition, % (test concentration not listed). actives 0.17% (n = 300,000). AID 1554, 2009;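 active means replicate mean above 50%; inconclusive means above 50% but judged a plate artefact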;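 further: 50 nL library stock added to about 25 µL; numbers are from one replicate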
PrP UTR inh = inhibition of PrP 5' UTR reporter expression. cell-based PrP 5' UTR mRNA reporter, plate reader. AID 488862, 2010. actives 0.35% (n = 340,000). inhibition, % (concentration not given with the values);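 active means every replicate at 50% or more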;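 further: 0 = median of the neutral control wells; tested in H4 reporter cells; numbers are from one replicate; inactives centre near -14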
Sa ugtP lethal = growth inhibition of ugtP-null S. aureus, primary screen, RN4220 ugtP deletion, OD600. 16 h; some inactives read as strong as hits. growth inhibition, % (no concentration beside the values). actives 0.54% (n = 330,000). AID 1259309, 2017;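 active means z-score under -3 and OD600 up to 0.15 on both plates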;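 further: plate controls were untreated wells for no effect and antibiotic for full effect; wells of about 80 µL received 100 nL stock; the first replicate is given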
Mtb hypoxia rep = PubChem AID 1159583. M. tuberculosis hypoxia-regulated fluorescent reporter, fluorescence. fluorescence inhibition, % (no concentration beside the values). actives 0.1% (n = 300,000);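 active means 35 to 45% if threefold the growth effect, above 45% if 1.5-fold the growth effect; inactive means the rest, general growth blockers included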;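 further: wells of about 50 µL received 100 nL stock; 0% = vehicle wells and 100% = reference inhibitor wells; whole bacteria with a GFP reporter of the hypoxia response; strong numbers were not always called active; many hits fall short of the cut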
Autofluor counter = counter-screen for toxin protease inhibitors: compound fluorescence; compound autofluorescence counterscreen, microsphere flow cytometry; stronger effect = higher value; actives 3.1% (n = 360,000); AID 624483; fluorescence intensity (no concentration beside the values);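 active means at least 3 SD above the mean of all compounds, about 16000 in these data; inconclusive means too few beads counted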;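 further: 100 nL of 1 mM stock went into each well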
RN4220 kill = growth inhibition of S. aureus RN4220, primary screen, OD600. 16 h. inhibition, % (test concentration not listed). actives 0.33% (n = 330,000). AID 1259311, 2017;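 active means z-score of -3 or lower and OD600 up to 0.18 on both plates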;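 further: plate controls were untreated cells for no effect and reference antibiotic for full effect; stock transfer was 100 nL into about 80 µL; one replicate is shown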
Mtb hypoxia rep growth = also measured in Mtb hypoxia rep; calls as there; growth inhibition, %; measured here: M. tuberculosis growth (absorbance);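 0% = vehicle and 100% = reference antibiotic; read after six days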
Active calls of the source: *; ? = inconclusive; / = no result given. Hits appear at their usual frequency (roughly 4% active in at least one column).

SMILES	BJeLR viability	PrP UTR inh	Sa ugtP lethal	Mtb hypoxia rep	Mtb hypoxia rep growth	Autofluor counter	RN4220 kill
CCN(Cc1nc2cc(Cl)ccc2c(=O)[nH]1)C(=O)CN1C(=O)NC2(CCCCC2C)C1=O (centres undefined)	/	-11	4	2	-5	/	0.9
O=C(O)CSc1nnc(-c2ccc(Cl)cc2)n1-c1ccccc1	-2	9	/	/	/	4072	/
Cn1cccc1C1Nc2ccccc2NC2=C1C(=O)CC(C)(C)C2 (centres undefined)	-2	-20	7	-2	8	2912	4.1
COCC(=O)n1nc(-c2ccccc2)nc1NCc1ccc(F)cc1	5	-20	-11	12	9	4374	5.0
CCC/C(=N/NC(=O)c1nnn(-c2nonc2N)c1CN1CCCCC1)c1ccccc1	-3	-28	/	/	/	6426	/
CC(=O)Nc1ccc(S(=O)(=O)n2cnc(C)c2)cc1	7	-9	4	/	/	2186	3.4
CCc1ccc2c(CN3CC=C(c4ccccc4)CC3)cc(=O)oc2c1	1	-12	-7	11	6	2672	5.4
O=C(Nc1cccc(Cl)c1)c1nc[nH]c1C(=O)N1CCc2ccccc2C1	/	-38	4	12	4	3978	2.6
COC(=O)c1ccc(C)c(NC(=O)CN2C(=O)c3ccccc3S2(=O)=O)c1	-5	-19	8	/	/	2213	-0.8
Cc1cccc(C)c1NC(=O)CSc1nnc(-c2cnccn2)n1C	3	-4	8	16	7	5647	4.4
O=C(Nc1cccc(Cl)c1)OCCOCCOC(=O)Nc1cccc(Cl)c1	/	0	-34	1	2	3718	-7.1
CN(C)C(=O)CCSc1nnc(-c2ccco2)o1	-2	-26	3	13	6	3703	2.6
Cc1ccc(S(=O)(=O)N=C(Nc2cc(C)on2)c2ccc(Cl)cc2)cc1	/	/	-9	5	8	/	8.2
Cc1cccc(N2CC(c3nc4ccccc4n3C)CC2=O)c1C (centres undefined)	-5	3	20	0	0	6904	42
Cc1ccc(CN2C3=NC(=O)CN3c3ccccc32)cc1	-2	-13	7	9	3	9290	5.2
CCOC(=O)C1C(c2ccc(O)c(OC)c2)NC(=O)NC1(O)C(F)(F)F (centres undefined)	-4	-7	6	18	6	3576	4.8
O=C(NCc1nc2ccccc2[nH]1)c1cc2ccccc2oc1=O	1	-19	7	11	4	3186	4.7
O=C1C(=O)N(Cc2cccs2)c2ccccc21	8	-20	5	13	6	4111	3.9
C=CCn1c(SCCOc2ccc(OC)cc2)nnc1C(C)NC(=O)Cc1ccc(OC)cc1 (centres undefined)	-1	4	5	12	11	11317	4.3
Cc1cc(C)nc(SCc2nnc(SCC(N)=O)o2)n1	-4	-28	5	3	2	4027	2.4
Cc1ccc(S(=O)(=O)N2CCOCC2)cc1C(=O)OCC(=O)NC1CCCC1	/	-3	4	12	1	?	6.9
O=C(Nc1ccccc1)Nc1cccc2nsnc12	-8	-87	1	2	9	4371	-6.6
COc1ccccc1/C=C/C=Nn1c(C2CCCCC2)n[nH]c1=S	/	/	-16	9	6	/	-0.9
CC(C)(C)Nc1nc(Cl)nc(N(C#N)CN2C(=O)c3ccccc3S2(=O)=O)n1	-8	-14	0	-4	-8	3427	0.4
CCOC(=O)c1c(NC(=S)Nc2ccc(OC)cc2)sc2c1CCC2	6	0	-6	5	7	2576	2.3
O=C(Nc1ccc2c(c1)OCO2)C(c1ccccc1)N1CCC2(CC1)OCCO2 (centres undefined)	-5	-3	4	17	5	5091	0.6
Cc1cc(C)cc(N(CC(=O)O)S(=O)(=O)c2c(C)noc2C)c1	-5	-36	7	7	4	6159	2.3
CC(=O)Nc1ccccc1P(=O)(c1ccccc1)c1ccccc1OC(C)=O (centres undefined)	-19	-24	8	20	9	4634	0.2
COc1ccc(NC(=O)/C=C/c2cccc(C(F)(F)F)c2)cn1	2	-5	-6	1	1	2984	-0.7
O=S1(=O)N(CCN2CC=C(c3c[nH]c4cc(F)ccc34)CC2)c2cccc3c2N1CCC3	/	0	-17	8	3	6570	6.3
O=C1C(=C2CCCCC2)SC(=S)N1Cc1ccco1	1	-21	/	/	/	23926*	/
Oc1ccc(Br)cc1C=Nn1cnc2ccccc21	/	/	-25	2	7	/	-3.5
Cc1ccc(-c2nc(CS(=O)CC(=O)NCCCN3CC(C)CC(C)C3)c(C)o2)cc1 (centres undefined)	-14	5	-3	2	10	6552	-7.2
CCCCC(OC(=O)CN1C(=O)COc2ccccc21)C(=O)NC1CCCCC1 (centres undefined)	-9	0	0	9	9	3999	-4.3
CCOc1cc(-c2nnc(-c3ccco3)o2)cc(OCC)c1OCC	-1	-36	-7	3	1	10088	3.8
COC(=O)C1=CN(Cc2ccc(OC)cc2)C=C(C(=O)OC)C1c1ccsc1	-15	-19	10	4	-1	3906	1.4
O=C(Nc1nccs1)c1cccnc1Cl	3	9	4	11	-7	3003	1.4
CCN(CC)CCOc1cc2c(nn1)Oc1ccccc1N2C	13	-25	10	13	5	6685	-0.3
O=C(O)c1ccccc1NS(=O)(=O)c1ccc(NNC(=S)Nc2ccc(OC(F)F)cc2)c([N+](=O)[O-])c1	8	-12	5	9	-6	3178	5.1
COc1cc(/C=C2\SC(=S)N(CC(=O)Nc3ccccn3)C2=O)cc(OC)c1OC	0	-6	2	10	1	2410	1.3
CSC1=Nc2sc3c(c2C2=NCCN12)CC(C)(C)OC3	/	-19	-4	7	3	4035	4.1
CCNC(=O)N(C)C[C@H]1N[C@@](CC)(C(=O)OC)[C@H]2C(=O)N(Cc3ccccc3)C(=O)[C@@H]12	/	-37	2	5	3	3763	-1.8
Cc1ccc(CN2C(=O)c3ccccc3NC23CCN(Cc2ccccc2)CC3)cc1	/	-8	1	6	4	5657	3.8
COc1ccc(NC(=O)CN2C(=O)CC(C)S(=O)(=O)c3ccccc32)cc1 (centres undefined)	4	7	/	/	/	5517	/
Cc1ccc(-c2cc(-c3ccccc3Cl)c(C#N)c(N)n2)o1	10	-10	-6	/	/	5197	1.4
CCOc1cc(-c2nn3cnnc3s2)cc(OCC)c1OCC	-9	-14	2	8	2	4061	4.2
Cc1cc(C(=O)COC(=O)C2=COCCO2)c(C)n1-c1ccccc1	/	82*	3	13	14	3509	3.2
CCOC(=O)c1c(NC(=O)CSc2nnc(-c3ccco3)o2)sc(C(C)=O)c1C	-2	-18	-8	/	/	2448	3.8
Cc1[nH]n(-c2ccccc2)c(=O)c1/C=N/N1CCOCC1	-8	-22	/	/	/	4646	/
CCCCn1nc(C(=O)Nc2ccc3c(c2)OCO3)c2ccccc2c1=O	/	-5	-8	-8	5	3547	-2.2
Cc1ccc(S(=O)(=O)N(CC(=O)NCc2ccccc2)C(=O)N2CCN(C)CC2)cc1	-3	-14	7	-9	-1	4784	2.4
CCCCCC(N)=O	/	-2	14	3	0	5196	7.6
CC(=O)/C(=N/Nc1cccc(Cl)c1)Sc1nnc(C(O)c2ccccc2)n1-c1ccccc1 (centres undefined)	3	-21	/	/	/	2056	/
O=C(O)c1cccc(Nc2nc(-c3cccnc3)nc3ccccc23)c1	-5	-16	1	5	2	2187	5.7
S=C(NC12CC3CC(CC(C3)C1)C2)N1CCOCC1	0	1	3	16	7	4175	9.6
CN(CC(=O)NCCc1ccccc1)Cc1ccco1	4	-15	10	15	6	5695	3.2
CCN(Cc1ccccc1)C(=O)C1CCN(S(=O)(=O)c2ccc3c(c2)OCCO3)CC1	5	-14	0	-3	1	5957	3.0
CCOC(=O)c1c(NC(=O)COC(=O)/C=C/c2ccccc2)sc(C(=O)NC)c1C	/	2	3	7	0	6185	1.7
Cc1ccc(S(=O)(=O)N(C)C)cc1NC(=O)C1CCN(C(=O)Nc2ccccc2)CC1	/	-13	8	1	-4	5101	3.4
CN(C)c1ccc(CN2CCCCC2)cc1	-3	-8	13	9	10	2504	-1.2
Later entries.
SMILES	BJeLR viability	PrP UTR inh	Sa ugtP lethal	Mtb hypoxia rep	Mtb hypoxia rep growth	Autofluor counter	RN4220 kill
CC(C)NC(=O)NC(=O)COC(=O)c1ccc(OC(F)(F)F)cc1	-9	-22	5	13	3	1910	5.6
O=C(O)c1cccc(NS(=O)(=O)c2ccc3c4c(cccc24)C(=O)N3)c1	-4	-16	6	15	5	3643	-0.6
CC(=O)c1ccccc1NS(=O)(=O)c1cccc2nsnc12	-5	-28	6	20	-3	4174	8.1
Cc1ccc(NC(=O)CSCC(=O)Nc2cc(C(F)(F)F)ccc2N2CCOCC2)cc1	-2	-11	-13	-13	5	5761	5.6
COc1ccc(NC(=O)Cn2nnc(-c3ccc(CN4CCOCC4)cc3)n2)c(OC)c1	3	-8	8	3	-3	/	3.4
Cc1ccc(NC(=O)COC(=O)[C@H](C)NC(N)=O)c(C)c1	-8	-29	4	10	9	3767	1.6
COc1ccc(CN2C(=O)C(Cc3ccccc3)Nc3ncnc(N4CCCCC4)c32)cc1 (centres undefined)	-9	-14	-8	-4	7	4289	-13
Cc1ccc(S(=O)(=O)N2CCC(C(=O)N[C@H](C(=O)NCC3CCCO3)C(C)C)CC2)cc1 (some centres undefined)	-1	-9	-3	1	19	20985*	-1.7
CCN(C(=O)COC(=O)c1c2c(nc3ccccc13)/C(=C/c1ccccc1)CC(C)C2)C1CCS(=O)(=O)C1 (centres undefined)	10	-3	/	/	/	1994	/
Cc1cnc(C(=O)Nc2ccc(C)c(S(=O)(=O)N(C)C)c2)cn1	-3	-26	-3	4	-7	9211	-1.9
CCN(CC)CCNC(=O)c1cc(S(C)(=O)=O)ccc1OC	/	7	2	-4	-1	4356	8.4
Cc1ccc(C2=NCCn3c2c2ccc(C(F)(F)F)cc2[n+]3[O-])cc1	-8	-26	4	/	/	2970	13
C/C(=N\NC(=O)CCc1c[nH]c2ccccc12)c1cccc([N+](=O)[O-])c1	6	-14	/	/	/	2127	/
COc1ccc(Cc2nnc(NC(=O)c3ccccc3)s2)cc1OC	-2	-12	8	11	0	4274	6.6
Cc1cc2oc(=O)cc(CN3CCC(C)CC3)c2c(C)c1Cl	3	-16	-2	10	19	10497	5.5

A draw from above in order of formula weight, smallest number first:
SMILES	BJeLR viability	PrP UTR inh	Sa ugtP lethal	Mtb hypoxia rep	Mtb hypoxia rep growth	Autofluor counter	RN4220 kill
CCCCCC(N)=O	/	-2	14	3	0	5196	7.6
O=C1C(=O)N(Cc2cccs2)c2ccccc21	8	-20	5	13	6	4111	3.9
Cn1cccc1C1Nc2ccccc2NC2=C1C(=O)CC(C)(C)C2 (centres undefined)	-2	-20	7	-2	8	2912	4.1
COc1ccc(NC(=O)/C=C/c2cccc(C(F)(F)F)c2)cn1	2	-5	-6	1	1	2984	-0.7
COc1ccccc1/C=C/C=Nn1c(C2CCCCC2)n[nH]c1=S	/	/	-16	9	6	/	-0.9
COc1ccc(NC(=O)Cn2nnc(-c3ccc(CN4CCOCC4)cc3)n2)c(OC)c1	3	-8	8	3	-3	/	3.4

Next compounds
SMILES	BJeLR viability	PrP UTR inh	Sa ugtP lethal	Mtb hypoxia rep	Mtb hypoxia rep growth	Autofluor counter	RN4220 kill
Cc1ccc(Cn2c(=O)c3cccnc3n(CC(=O)Nc3cccc(C(F)(F)F)c3)c2=O)cc1	-6	-4	-8	-2	3	2099	-7.6
COc1ccc(N=Cc2sc(O)c3ccccc23)cc1	2	-136	11	4	10	4400	6.0
COc1ccc(Nc2oc(-c3ccccc3Cl)nc2C#N)cc1	18	-26	5	13	7	5212	3.5
O=C1c2ccccc2NC(c2ccc(-c3cccc(F)c3)o2)N1O (centres undefined)	/	-57	-30	12	4	3561	11
Cc1ccc(-c2nnn(CC(=O)N(Cc3cccs3)C(C(=O)NCC3CCCO3)c3ccco3)n2)o1 (centres undefined)	-8	-11	6	0	1	2664	-3.7
COc1ccccc1NC(=O)c1ccc(Br)c(S(=O)(=O)N2CCCC2)c1	-2	-5	-12	-1	2	4685	-5.4
O=C1CSC(=S)N1/N=C/c1ccc(C(F)(F)F)cc1	11	-6	/	/	/	3684	/
Cc1nc2c(C(=O)NCc3ccc(F)cc3)c[nH]n2c(=O)c1Cl	16	-13	7	5	1	10161	-0.3
CCOC(=O)Cc1csc(N/C(=N/S(=O)(=O)c2ccc(Cl)cc2)c2ccccc2)n1	3	-18	-2	3	4	2465	1.4
COc1ccccc1N(CC(=O)NCc1ccccc1)C(=O)CCC(=O)Nc1ccccn1	-13	-35	10	/	/	3731	-0.7
